H5N1 antiviral – antiviral screen in MDCK cells, H5N1 avian flu; cytopathic effect, luminescence, 72 h; hits give high values; no value below 0 was filed and about half of the inactive calls have no number; reference of the scale not given here; inhibition, % at 50 µM; 0.07% of 96,000 active; AID 740; in the data active = inhibition above about 25%
* marks the source's active call; other numbers are inactive results; i = inactive.

SMILES | H5N1 antiviral
CC(OC(=O)C1CCN(S(=O)(=O)c2ccc(Cl)cc2)CC1)C(=O)N1CCc2ccccc21 (stereo not drawn) | 5.9
Cc1ccc(Oc2ccc(-c3nc(N)nc(N)n3)cc2)cc1 | 0.3
O=C(CN1C(=O)CSC1=O)NC1CCCCC1 | 5.3
COCCCn1c(C)nc2c(c1=O)c1nc3ccccc3nc1n2CCc1ccccc1 | i
CCOC(=O)c1c(C)c(C(=O)NCc2cccnc2)c(C)n1CC | 0.7
Cc1ccc2nc(NCCCO)nc(-c3ccccc3)c2c1 | i
CCC(=O)Nc1ccc(NC(=O)c2ccccn2)cn1 | i
CN(C)CCCNc1cc(Cl)c(S(=O)(=O)N2CCCCC2)cc1C(=O)O | i
C/C(=N\Nc1nc2c(s1)CCCC2)c1ccc(Cl)cc1 | 1.7
CCOC(=O)c1oc2ccccc2c1NC(=O)c1ccc2c(c1)OCO2 | 0.6
CCN(CC)CCCNC(=O)N[C@@H](Cc1ccccc1)C(=O)O | 0.7
CCCC(=O)Nc1ccc(N2CCOCC2)cc1 | 0.1
O=C(c1ccco1)N1CCC(c2nc(-c3ccccc3Cl)no2)CC1 | i
Cc1n[nH]c(=O)nc1Nc1ccc(O)cc1 | i
Cc1cc(C)cc(-n2c(C)cc(/C=N/NC(=O)CSc3ncccn3)c2C)c1 | i
Cc1cccc(N(C(=O)Cn2nnc3ccccc32)C(C(=O)NC(C)(C)C)c2ccsc2)c1 (stereo not drawn) | 0.9
N#Cc1nc(Cc2cccc3ccccc23)oc1NCC1CCCO1 (stereo not drawn) | i
C/C(=N\NC(=O)c1ccc(Br)cc1)C1C(=O)c2ccccc2C1=O | i
O=C(Cn1ncnn1)OCc1ccccc1Cl | 1.2
Oc1oc(-c2ccccc2)nc1C=Nc1ccccc1 | i

Fetched one by one from above:
SMILES | H5N1 antiviral
Cc1n[nH]c(=O)nc1Nc1ccc(O)cc1 | i
CCN(CC)CCCNC(=O)N[C@@H](Cc1ccccc1)C(=O)O | 0.7
CC(OC(=O)C1CCN(S(=O)(=O)c2ccc(Cl)cc2)CC1)C(=O)N1CCc2ccccc21 (stereo not drawn) | 5.9

Returning to the listing with the two entries that preceded the break.
SMILES | H5N1 antiviral
O=C(Cn1ncnn1)OCc1ccccc1Cl | 1.2
Oc1oc(-c2ccccc2)nc1C=Nc1ccccc1 | i
COc1cc(-c2noc(CCC(N)=O)n2)cc(OC)c1OC | 0.5
Cc1ccc(NCCC(=O)c2ccc(Cl)cc2)cc1C | i
Cc1nc(C(=O)N(C)C)nn1-c1cc(Cl)ccc1Cl | 0.1
COc1ccccc1N1CCN(CC(=O)Nc2cccc(F)c2)CC1 | 0.2
COCCCNC(=O)C12CCC(C)(C(=O)C1)C2(C)C (stereo not drawn) | 0.3
COc1ccccc1NC(=O)C1=C(C)NC(SCC(=O)c2ccc(C)cc2)=C(C#N)C1c1ccco1 (stereo not drawn) | i
O=C(NC1CC2CCCC(C1)N2C(=O)NC1CCCCC1)c1ccc(F)cc1 (stereo not drawn) | i
C/C(O)=C\c1nc2ccccc2oc1=O | 1.7
Cc1ccc(CNC(=O)CCS(=O)(=O)c2cccc3nsnc23)cc1 | 0.5
C=C(C)Cn1c(C)cc(C)c(S(=O)(=O)c2ccccc2C)c1=O | 0.3
CC(NC(=O)COc1cccc(Br)c1)C(=O)O (stereo not drawn) | i
COc1ccc(OCc2nc3ccccc3[nH]2)cc1 | i
Cc1c(NS(=O)(=O)c2cccc(C(=O)NCc3ccccc3)c2)c(=O)n(-c2ccccc2)n1C | 0.2
COc1ccccc1C1CC(c2ccc(Cl)cc2)Nc2nc(N)nn21 (stereo not drawn) | 0.9
COc1ccc(-n2c(Cc3cccn3C)nnc2SCC(=O)Nc2ccccc2)cc1 | 0.8
CC(C)OCCCNC(=O)C1CCN(S(=O)(=O)N2CCCCC2)CC1 | 0.7
CC(=O)c1ccc(NC(=O)C(C)Sc2nnnn2C)cc1 (stereo not drawn) | i
C=CCC1c2cccc(C(=O)O)c2C(=O)N1c1ccc(Cl)cc1 (stereo not drawn) | 1.4
CCCC(C)c1nnc(NC(=O)c2cc(C(=O)OC)cc([N+](=O)[O-])c2)s1 (stereo not drawn) | i
CCOC(=O)c1oc2ccc(S(=O)(=O)n3nc(-c4ccccc4)cc3N)cc2c1C | 2.4

Reprinted from the listing (five entries):
SMILES | H5N1 antiviral
CCCC(=O)Nc1ccc(N2CCOCC2)cc1 | 0.1
O=C(c1ccco1)N1CCC(c2nc(-c3ccccc3Cl)no2)CC1 | i
Cc1n[nH]c(=O)nc1Nc1ccc(O)cc1 | i
Cc1cc(C)cc(-n2c(C)cc(/C=N/NC(=O)CSc3ncccn3)c2C)c1 | i
Cc1cccc(N(C(=O)Cn2nnc3ccccc32)C(C(=O)NC(C)(C)C)c2ccsc2)c1 (stereo not drawn) | 0.9

Remaining list, next part.
SMILES | H5N1 antiviral
N#CC1=C(N2CCCCC2)c2cc3c(n2C1=O)CCCC3 | 0.8
Cc1ccccc1-n1c(Cn2c(=O)sc3ccccc32)nnc1SCC(N)=O | i
Cc1ccc(C(=O)/C=C/Nc2ccccc2C(N)=O)cc1 | i
Cc1nn(-c2ccc(F)cc2)c(C)c1NS(=O)(=O)c1ccc2ccccc2c1 | i
Cc1nc(Nc2cccc(C(F)(F)F)c2)nc2c1C(=O)CC(C)C2 (stereo not drawn) | i
CCc1nnc(NC(=O)c2c(OC)cccc2OC)s1 | 1.1
CCC(=NCC1CCCO1)c1c(O)n(Cc2ccccc2)c(=O)[nH]c1=O (stereo not drawn) | 0.4
CC(=O)NC(Cc1c[nH]c2ccccc12)C(=O)NCc1ccc2c(c1)OCO2 (stereo not drawn) | i
CCOC(=O)c1cccc2c1-c1ccccc1/C2=N/O | i
CCOc1cc(N2CCOCC2)c(OCC)cc1NC(=O)COc1cccc2cccnc12 | i
COCCCNC(=O)Nc1ccc(Br)cc1Cl | 0.8
CC(C)NC(=O)c1cc2cc(Br)ccc2oc1=O | 0.1
O=C(CSc1nnc(Cn2nnc(-c3ccccc3)n2)n1-c1ccccc1)Nc1ccc(F)cc1 | i
O=C(O)C1CCCN1c1ncnc2ccccc12 (stereo not drawn) | 0.1
CC1(C)SCC(C(=O)O)N1C=O (stereo not drawn) | i
O=C(C1CC1)N1CCCN(C(=O)C2CC2)CC1 | i
COCC(C)NC(C(=O)Nc1ccc(C)c(Cl)c1)c1ccccc1 (stereo not drawn) | 0.5
Cc1ccc(N2C(N)=C(C#N)C(c3cccs3)C3=C2CC(C)(C)CC3=O)cc1 (stereo not drawn) | 11
CC(=O)NCC(=O)NC1(C(=O)NC2CCCC2)CCCCC1 | 1.4
COc1ccccc1CN=C1NC(=O)C(CC(=O)Nc2ccc(OC)c(OC)c2)S1 (stereo not drawn) | i
CCc1ccc(OCc2nnc(SCCN3CCOCC3)n2C)cc1 | i
CCC(=NCc1ccccc1)c1c(C(F)(F)F)[nH]n(-c2nc3ccccc3s2)c1=O | i
Cc1nc(SCC(=O)Nc2ccc3c(c2)OCCO3)c2oc3ccccc3c2n1 | 0.0
C=C(C)COc1ccc(-c2ncncc2Oc2ccc(OC)cc2)c(O)c1 | 0.6
Cc1cc(=O)oc2cc(OCC(O)CN3CCN(c4ccc(F)cc4)CC3)ccc12 (stereo not drawn) | 1.2
Cc1ccc(NC(=O)CN2CCN(c3ccccn3)CC2)c(Cl)c1 | i
COc1ccc(OC)c(-n2c(O)cnc2Nc2nc(C)cc(C)n2)c1 | 2.7
Cc1nc2sc(C(c3ccc(Br)cc3)N3CC(C)OC(C)C3)c(O)n2n1 (stereo not drawn) | i
Cc1ccc(NC2=CC(=O)CC(C)(C)C2)cc1C | i
CCSc1nnc(NC(=O)CSc2nnc(-c3c[nH]c4ccccc34)n2CC)s1 | 0.7
COc1ccc(C2C(C#N)=C(/N=C/N3CCN(C)CC3)OC3=C2C(=O)CC(C)(C)C3)cc1 (stereo not drawn) | 0.5
O=C(NC1CCCCC1)C(c1cccs1)N(C(=O)C(F)(F)F)c1ccccc1 (stereo not drawn) | 0.6
CCCCS(=O)CC(COc1ccc(Cl)cc1)OC(=O)c1ccccc1 (stereo not drawn) | i
COC(=O)c1cc(OC)c(OC)cc1NC(=O)c1ccc(C)cc1 | 1.8
COc1ccc(C2C(C#N)=C(SC)NC3=C2C(=O)CC(C)(C)C3)cc1 (stereo not drawn) | 1.7
COc1ccccc1CNC(=O)CCCN1C(=O)COc2ccc(C)cc21 | 0.2
CCOc1ccccc1C1CC(=O)NC(SCC(=O)Nc2nccs2)=C1C#N (stereo not drawn) | i
O=C1C2C3C=CC([C@@H]2C(=O)N1C1CC1)[C@H]1C(=O)N(C2CC2)C(=O)C31 (stereo partly drawn) | i
Cc1ccc(-c2nnc(-c3ccc(Br)cc3)o2)o1 | i
CCCCOC(=O)CCn1[nH]c(=O)c2ccccc2c1=O | i

5 entries from above, arranged by molecular weight, high to low:
SMILES | H5N1 antiviral
COc1ccc(C2C(C#N)=C(/N=C/N3CCN(C)CC3)OC3=C2C(=O)CC(C)(C)C3)cc1 (stereo not drawn) | 0.5
CCC(=NCc1ccccc1)c1c(C(F)(F)F)[nH]n(-c2nc3ccccc3s2)c1=O | i
O=C(NC1CCCCC1)C(c1cccs1)N(C(=O)C(F)(F)F)c1ccccc1 (stereo not drawn) | 0.6
Cc1ccc(NC(=O)CN2CCN(c3ccccn3)CC2)c(Cl)c1 | i
Cc1ccc(-c2nnc(-c3ccc(Br)cc3)o2)o1 | i

Following part:
SMILES | H5N1 antiviral
CCOC(=O)c1cnc(-n2nc(C)cc2C)nc1N(C)C | 1.5
Cc1noc(C)c1S(=O)(=O)NCCc1ccc(S(N)(=O)=O)cc1 | i
CCSc1nnc2c(n1)OC1(CCCC1)Nc1ccccc1-2 | 0.0
CC(C)NC(=O)c1ccc(COCC(F)(F)F)cc1 | i
CCN(C(=O)c1cnc(N2CCN(c3ncccn3)CC2)c2ccccc12)c1cccc(Cl)c1 | i
O=C1CC(Sc2ncccn2)C(=O)N1c1ccccc1C(F)(F)F (stereo not drawn) | 0.1
COc1ccccc1N1CCN(C(c2cc3ccc(C)cc3[nH]c2=O)c2nnnn2C2CCCC2)CC1 (stereo not drawn) | i
CCc1nnc(SCC(=O)Nc2ccc3c(c2)OCO3)o1 | 0.5
CCn1cc(C(=O)N/N=C(/C)c2ccc(F)cc2)c(=O)c2cc(F)c(N3CCCC3)cc21 | 0.4
c1csc(-c2nc(-c3ccncc3)no2)c1 | i
COc1ccc(Cn2c(C)nc3oc4cc(OC)ccc4c(=O)c3c2=O)cc1 | 1.6
COc1ccc(N2C(=O)CC(N3CCOCC3)C2=O)cc1 (stereo not drawn) | i
Cc1ccc2nc(NC(=O)CSCc3ccccc3)sc2c1 | i
CC12C(=O)N(Cc3ccco3)C(=O)C1C1c3ccccc3C2c2ccccc21 (stereo not drawn) | i
O=C1NN(c2ccccc2)C(=O)/C1=C\c1ccccc1OCC(=O)N1CCOCC1 | i
CCCOC(=O)c1ccc(Oc2c(-c3ccc(O)cc3O)n[nH]c2C)cc1 | 2.5
CC(=O)C(C(C)=O)c1c(Cl)c(O)c(O)c2c(C(=O)c3ccccc3)coc12 | 1.4
O=C(NC1CC1)c1ccc(S(=O)(=O)NC2CCCCCC2)cc1 | i
O=C(NC(Cc1ccccc1)C(=O)O)c1ccc(S(=O)(=O)N2CCCCC2)cc1 (stereo not drawn) | 0.3
Cc1nc(N2CCC(C(N)=O)CC2)c2nnn(Cc3ccccc3)c2n1 | 0.7
O=C(C1CC(=O)N(c2ccc(F)c(Cl)c2)C1)N1CCC2(CC1)OCCO2 (stereo not drawn) | i
O=C(Nc1ccc(Oc2ccc(NC(=O)C3CCCO3)cc2)cc1)C1CCCO1 (stereo not drawn) | i
Cc1onc(-c2c(Cl)cccc2Cl)c1C(=O)N1C=CC(C(F)(F)F)=NCC1 | i
O=C(COC(=O)c1ccc(Br)o1)NCC1CCCO1 (stereo not drawn) | i
Cc1cccc(OCc2nnc(SCC(=O)OC3CCCCC3)o2)c1 | 0.5
O=C(CSc1nc2[nH]ncc2c(=O)n1-c1ccccc1)c1ccc2c(c1)OCCO2 | i
O=C(Nc1nccs1)C(=O)c1c[nH]c2ccccc12 | i
Cc1c(C(=O)O)oc2ccc(S(=O)(=O)N3CC(C)CC(C)C3)cc12 (stereo not drawn) | i
CN1CCN(S(=O)(=O)c2cccc(S(=O)(=O)c3ccc(Cl)cc3)c2)CC1 | 1.5
CC(C)Cc1nc(N2CCN(C(=O)c3ccco3)CC2)c(C#N)c2c1CCC2 | 0.7
COCCn1c(=O)[nH]c2cc(C(=O)NC(C)C)ccc2c1=O | i
CCOC(=O)Cc1csc(NC(=O)CCCCCN2C(=O)c3ccccc3C2=O)n1 | i
COc1cccc(/C(O)=C2/C(=O)C(=O)N(CCN(C)C)C2c2ccccn2)c1 (stereo not drawn) | i
c1cncc(-c2nn[nH]n2)c1 | i
O=C(NCc1ccco1)c1cccc(NC(=O)c2ccco2)c1 | 0.1
Cc1cccc(/C=c2\s/c(=C\C(=O)C(C)(C)C)[nH]c2=O)c1 | i
CCCC(c1nnnn1Cc1ccco1)N1CCC(C(N)=O)CC1 (stereo not drawn) | i
O=C(CCCN1Cc2ccccc2C1)c1ccc(F)cc1 | i
O=C(Nc1ccc2oc(-c3ccncc3)nc2c1)c1cccs1 | 1.8
CCOc1ccccc1N(CC(=O)NCc1ccc(OC)cc1)S(C)(=O)=O | 0.8
C=CCN(CC=C)S(=O)(=O)c1ccc(NC(=S)NC(=O)c2ccc(-c3ccccc3)cc2)cc1 | i
O=C(COc1ccc(S(=O)(=O)NC2CCCCC2)cc1Cl)NCC1CCCO1 (stereo not drawn) | i
Cc1cc(/C=N/n2cnnc2)c(C)n1-c1ccc(Cl)cc1Cl | i
COc1ccc(CN=CC2=C(O)CNC2=O)cc1 | 0.3
CCOC(=O)c1sc2ncn(CC(=O)NCC3CCCO3)c(=O)c2c1C (stereo not drawn) | 0.4
Cc1nc(-c2cccc(NS(=O)(=O)c3ccc4ccccc4c3)c2)cs1 | i
O=c1ccnc(S/C=C/c2ccccc2)[nH]1 | 0.2

These rows are one share of the data. The share of hits here may be higher or lower than overall.
